# Calb biofilm kill: clotrimazole potentiators killing C. albicans biofilm, primary screen, 4-compound mixtures; C. albicans biofilm persisters + clotrimazole, fluorescence viability; primary screen in compound mixtures of four per well; inhibition, % at 7.6 µM; hit rate 0.02% among 120,000; AID 1242, 2008;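 active means inhibition above 30.3% in the primary screen of four-compound pools, then above 30% when the compound was retested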;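 further: compounds exposed to preformed 24 h biofilms for 48 h; the number belongs to the whole pool; some results filed as inactive read as strong as hits; inactives centre near 12; 0% = biofilm with clotrimazole alone and 100% = kill control; retested singly at about 60 µM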
#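 Test system: C. albicans CAF4-2 wild-type biofilms; buffer or medium: RPMI/MOPS medium, pH 7.0; schedule: 24 h biofilm formation, then 48 h compound exposure, 37 °C; detection: Alamar Blue fluorescence; measure: percent inhibition of biofilm viability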
# * hit, by the source's call. This is a subset, so the mix of outcomes need not match the whole.
no.	Structure	Calb biofilm kill
1	CC(=O)Nc1ccc(C(=O)Nc2nc(-c3cc(C)n(Cc4ccccc4)c3C)cs2)cc1	18
2	Cc1sc(N)c(C#N)c1C	4
3	Cc1onc(-c2c(F)cccc2Cl)c1C(=O)N=C(N)N1CC(C)OC(C)C1 (stereo not drawn)	14
4	Cc1ccccc1CN1C[C@@H]2C[C@@H](c3cn[nH]c3-c3ccc(F)cc3)N3CCC[C@@]23C1=O	-5
5	Cc1cc(NC(=O)c2ccc(F)cc2)n(CCOC(=O)c2ccc(F)cc2)n1	7
6	O=C(CCS(=O)(=O)c1ccccc1)Nc1ccc(-c2nc3ccccc3s2)cc1	21
7	Cc1c(OCc2ccc([N+](=O)[O-])cc2)ccc2c3c(c(=O)oc12)CCC3	10
8	CCOc1ccc(/C=N/NC(=O)c2c(-c3ccccc3)noc2C)cc1	17
9	O=C(N/N=C/c1ccncc1)c1cccc(NC(=O)c2ccc(Cl)cc2)c1	13
10	NC(=O)C(=O)N/N=C1\CCc2ccccc21	1
11	NC(=O)N/N=C/c1ccc(OCc2cccc(Cl)c2)cc1	-10
12	COc1cc(C2CC(=O)Nc3n[nH]c(-c4ccccc4)c32)cc(OC)c1OC (stereo not drawn)	20
13	CC(=O)Nc1cccc(-c2csc(Nc3ccc(Cl)cn3)n2)c1	12
14	FC(F)(F)c1ccc(Cl)c(N/N=C/c2ccc(N3CCOCC3)s2)c1	19
15	O=C(O)c1cccc(NC(=S)N/N=C/c2c[nH]c3ccccc23)c1	-4
16	Cc1ccc(C(=O)Cn2cnc3ccccc3c2=O)cc1	18
17	CCSc1nnc(NC(=O)CSc2nncc(=O)n2N)s1	14
18	COC(=O)c1ccc(/C=N/OCC(=O)NCCc2ccc(OC)c(OC)c2)cc1	14
19	CCOC(=O)c1ccccc1NC(=O)COC(=O)C(CC(C)C)NC(N)=O (stereo not drawn)	16
20	CC(C)C(OC(=O)c1cc2c(s1)CCCCC2)C(=O)NC(N)=O (stereo not drawn)	13
21	CN(C)NC(=S)Nc1cccc(Cl)c1	13
22	O=C1OCc2ccc(NC(=O)C3CC3)cc21	0
23	Cc1cccc(CSc2ccc3nnc(-c4ccccn4)n3n2)c1	16
24	O=C(O)c1ccc(N/C(=N\S(=O)(=O)c2ccc(Cl)cc2)c2ccccc2)cc1	7
25	CC1CC(NC(=O)/C=C/C(=O)O)CC(C)(C)C1 (stereo not drawn)	8
26	O=C(c1ccccc1)c1ccc(O)cc1O	14
27	CN(C)S(=O)(=O)c1cc(NC(=O)COC(=O)/C=C/c2ccco2)ccc1Cl	13
28	COc1cc2c(cc1OC)CN(C(=O)c1ccc3nc[nH]c3c1)CC2	7
29	NC(=O)c1cc(NC(=O)c2cc(Br)c(Br)s2)cc(C(N)=O)c1	2
30	CC(C)=CCC/C(C)=C/Cc1c(O)ccc(C(=O)/C=C/c2ccc(O)cc2)c1O	16

# The last 3 records of the section above come first, to join the parts.
no.	Structure	Calb biofilm kill
28	COc1cc2c(cc1OC)CN(C(=O)c1ccc3nc[nH]c3c1)CC2	7
29	NC(=O)c1cc(NC(=O)c2cc(Br)c(Br)s2)cc(C(N)=O)c1	2
30	CC(C)=CCC/C(C)=C/Cc1c(O)ccc(C(=O)/C=C/c2ccc(O)cc2)c1O	16
31	COc1cc(/C=N/Nc2ccc(C(=O)O)cc2)ccc1O	-2
32	CC1(CCc2ccccc2)NC(=O)N(Cc2cc([N+](=O)[O-])cc3c2OCOC3)C1=O (stereo not drawn)	19
33	c1ccc(-c2csc(Nc3cccnc3)n2)cc1	23
34	Cc1sc2nc(C(C)C)nc(SCC(=O)N3c4ccccc4CC3C)c2c1C (stereo not drawn)	6
35	CCN(CC)c1ccc(/C=N/NC(=O)C(O)(c2ccccc2)c2ccccc2)o1	12
36	O=C(CSC1=N/C(=C/c2ccco2)C(=O)N1c1ccc(OC(F)F)cc1)NC1CCS(=O)(=O)C1 (stereo not drawn)	1
37	O=S(=O)(NCC(Nc1ccccc1)c1ccccc1)c1ccc(Cl)cc1 (stereo not drawn)	14
38	Cc1ccc(-c2cc(C(F)F)nc(NCc3cccs3)n2)cc1	9
39	COc1ccc(C(C(=O)NC2CCCCC2)N(C(=O)c2sc(C)nc2C)c2ccccc2)cc1 (stereo not drawn)	19
40	FC(F)Oc1ccc(NC(=S)NCc2cccnc2)cc1	13
41	CC(C)C(=O)Nc1ccc(C(=O)N/N=C/c2cc(Br)cc(Br)c2O)cc1	9
42	CCc1ccc(OC(C)c2nnc(SCC(=O)Nc3ncccc3C)n2C)cc1 (stereo not drawn)	8
43	NC(=O)N/N=C/c1cc(Br)ccc1OC(=O)c1ccccc1	19
44	COc1ccc(S(=O)(=O)CCC(=O)N2CCN(c3ccccc3F)CC2)cc1	11
45	COc1ccc(C2c3ccc(O)cc3Oc3ncn(CCN4CCOCC4)c(=N)c32)cc1 (stereo not drawn)	25
46	CCOc1cc(N2CCCC2)ccc1[N+](=O)[O-]	26
47	COc1cc(OC)c2ccc(=O)oc2c1C(CCN1CCN(c2ccccc2)CC1)c1ccc2c(c1)OCO2 (stereo not drawn)	8
48	N#C/C(=C(/O)COc1ccccc1)c1nc2ccccc2s1	10
49	Cc1ccc(CNC(=O)CCC2CCCN(Cc3cccc4c3OCO4)C2)o1 (stereo not drawn)	32
50	CC1CC(C)CN(C(=O)COC(=O)CCc2nc3ccccc3c(=O)[nH]2)C1 (stereo not drawn)	8
51	COCCN(CCOC)C(=O)COC(=O)c1cc([N+](=O)[O-])ccc1Cl	21
52	C#CCSc1cc(C(F)(F)F)nc(-c2ccccn2)n1	7
53	Cc1ccc(SCC(=O)Nc2c(Br)cnn2C)cc1	12
54	O=C(NCC1CCCN(Cc2cccc(OCCO)c2)C1)c1ccc(F)cc1 (stereo not drawn)	18
55	N#Cc1c(-c2ccc(F)cc2)ccnc1N1CCOCC1	9
56	CCCS(=O)(=O)NCCc1cc2c(C)ccc(C)c2[nH]c1=O	-5
57	CCOC(=O)c1c(-c2cccc([N+](=O)[O-])c2)csc1N	4
58	Cn1cc(Cl)c(C(=O)N/N=C/c2ccc(OS(=O)(=O)c3ccccc3)cc2)n1	19
59	COc1ccccc1NC(=S)N(Cc1ccccc1)Cc1ccccn1	10
60	NS(=O)(=O)c1cc(C2(O)NC(=O)c3ccccc32)ccc1Cl (stereo not drawn)	8
61	CCOC(=O)c1cc2c(ccc3ccccc32)oc1=O	27
62	COc1cc2nc(CSc3nc(-c4ccc(F)cc4)cs3)[nH]c(=O)c2cc1OC	2
63	O=C(NC(Cc1ccccc1)C(=O)O)/C(=C/c1ccc([N+](=O)[O-])cc1)NC(=O)c1ccccc1Br (stereo not drawn)	13
64	COc1ccccc1CNC(=O)CSc1ccc(-c2cccc([N+](=O)[O-])c2)nn1	21
65	OCCC1CN(Cc2cccn2-c2nccs2)CCN1Cc1ccccc1 (stereo not drawn)	24
66	COc1ccc(C(=O)NNC(=O)c2cc(C)[nH]n2)cc1	5
67	COc1cccc2[nH]c3c(N4CCc5ccccc5C4)ncnc3c12	15
68	COc1ccc(C(=O)NNC(=O)c2cccc(F)c2)cc1	1
69	CCc1ccc(OCC(=O)Nc2ccc(-c3cc4ccccc4oc3=O)c(OC)c2)cc1	-1
70	Cc1ccc(OCC(=O)Nc2cccc(S(=O)(=O)N3CCOCC3)c2)c([N+](=O)[O-])n1	10
71	Cn1cccc1/C=N/NC(=O)c1sc2cc(Cl)ccc2c1Cl	7
72	CC(=O)c1c(C)[nH]c(C(=O)CN2C(=O)NC(CCc3ccccc3)C2=O)c1C (stereo not drawn)	12
73	Cc1snc(SCC(=O)c2ccc(F)cc2)c1C#N	14
74	COc1ccc(C2=NO[C@@H]3C(=O)N(Cc4ccccc4)C(=O)[C@H]23)c(OC)c1	-7
75	Nc1cc(=O)[nH]c(SCc2nc3ccccc3n2Cc2ccccc2)n1	11
76	COC(=O)/C=C1/SC(=NC(=O)c2ccc(F)cc2)NC1=O	32
77	COc1ccc(N2CCN(C(c3cccs3)C(C)NS(C)(=O)=O)CC2)cc1 (stereo not drawn)	15
78	Cc1ccccc1C(C(=O)NC1CCCCC1)N(C(=O)c1ccccn1)c1cccnc1 (stereo not drawn)	2
79	CC(C)(C)c1ccc(NS(=O)(=O)c2ccc(N)cc2)cc1	23
80	CCOc1ccccc1C(=O)Nc1nnc(SCC(=O)Nc2cc(C)on2)s1	10
81	Cc1nc2ncnn2c(N2CCCC(C(=O)Nc3ccccc3Br)C2)c1C (stereo not drawn)	18
82	Cc1nc2ccccn2c1C(=O)CSc1cccc(Cl)c1	-1
83	CN1CCCN(Cc2nc(-c3ccc(Cl)cc3)no2)CC1	20
84	CC(=O)C(Cc1ccccc1)NC(=O)CN1CCN(Cc2ccccc2)CC1 (stereo not drawn)	14
85	COc1ccc(C2CC(c3cccs3)=NN2c2ccc(F)cc2)cc1OC (stereo not drawn)	-2
86	COc1ccc(/C=N/n2c(C)nc3c([nH]c4ccccc43)c2=O)cc1CN1CCCC(C)(C)C1	27
87	CN(C)C(=O)c1ccc(-c2n[nH]c(=O)c3ccccc23)cc1	14
88	CNC(=O)NC(=O)COC(=O)CCCSc1nc2ccccc2s1	8
89	Cc1ccc(N/C=C2/Sc3ccccc3NC2=O)cc1	-3
90	Cc1cccc2cc(CN(CCN3CCOCC3)C(=O)Nc3ccccc3F)c(=O)[nH]c12	21

# 4 compounds from above, ordered by formula weight, smallest number first:
no.	Structure	Calb biofilm kill
66	COc1ccc(C(=O)NNC(=O)c2cc(C)[nH]n2)cc1	5
79	CC(C)(C)c1ccc(NS(=O)(=O)c2ccc(N)cc2)cc1	23
82	Cc1nc2ccccn2c1C(=O)CSc1cccc(Cl)c1	-1
69	CCc1ccc(OCC(=O)Nc2ccc(-c3cc4ccccc4oc3=O)c(OC)c2)cc1	-1

# (list continues)
no.	Structure	Calb biofilm kill
91	COc1ccc2c(c1)-c1c(sn(-c3ccccc3)c1=S)C(C)(C)N2	5
92	O=C(c1ccc(OC2CCN(C(=O)C3CC3)CC2)cc1)N(CCO)Cc1ccccc1	20
93	O=C(CSc1nnc(-c2ccc(Br)cc2)n1CCc1ccccc1)NC1CCS(=O)(=O)C1 (stereo not drawn)	10
94	CC(C)CC1NC(=O)N(CC(=O)N2CCCc3ccccc32)C1=O (stereo not drawn)	1
95	Cc1nn(C)cc1CNC(=O)C1(C)CC1(Cl)Cl (stereo not drawn)	15
96	CC(=O)O/C(=C\c1cn(C(C)=O)c2ccccc12)C(=O)O	13
97	CC(=O)N1CCC(=NNc2ccc(S(=O)(=O)N3CCOCC3)cc2[N+](=O)[O-])CC1	11
98	O=C(Nc1ccccc1Br)C1CCN(C(=O)Cc2ccccc2)CC1	9
99	CCOC(=O)C(=O)NCc1ccc(/C=C2/N=C(C)C(C(=O)OCC)=C2O)o1	11
100	CCOC(=O)CCc1c(C(=O)OCC)[nH]c(CC)c1C(=O)OCc1ccccc1	18
101	Cc1oncc1-c1csc(-c2ccccc2)n1	6
102	Cc1cc([N+](=O)[O-])nn1CCCC(=O)NC(C)c1ccccc1 (stereo not drawn)	10
103	COC(=O)c1ccc(C(=O)OC)c(=O)[nH]1	3
104	O=C(O)c1ccc(CSc2nnc(-c3cccnc3)n2-c2ccc(Br)cc2)cc1	2
105	O=C(NC1CCCCCC1)c1ccc2nc3cc(Cl)ccc3c(=O)n2c1	24
106	COc1ccccc1C(=O)OCC(=O)NC(=O)NCc1ccccc1	10
107	COc1ccc(CCNC(=O)CSc2cn(Cc3cccc(C)c3)c3ccccc23)cc1OC	16
108	COc1ccc(-c2cn3cc([N+](=O)[O-])ccc3n2)cc1OC	2
109	CN(C)/C=C/C(=O)c1cc(F)cc(C(F)(F)F)c1	-1
110	Cc1ccc(S(=O)(=O)/N=C2\SC(CC(=O)Nc3ccc(F)cc3)C(=O)N2c2ccccc2)cc1 (stereo not drawn)	21
111	O=C(N/N=C/c1cn(-c2cccs2)nc1-c1ccccc1)c1ccccc1O	17
112	CC(C)C(=O)Nc1nnc(COc2ccc(Cl)cc2)s1	14
113	CN(c1ccccc1)S(=O)(=O)c1ccc(Cl)c(C(=O)Nc2ccc(-c3nc4ccccc4[nH]3)cc2)c1	5
114	O=C(O)CCC(=O)NCc1c(Cl)cccc1Sc1ccc(Cl)cc1	22
115	O=[N+]([O-])c1ccccc1N/N=C1\CCc2ccccc21	10
116	Nc1cc[n+](CC(=O)Nc2ccccc2)cc1	11
117	Cc1ccc(C)c(OCC(=O)Nc2c[nH]c(=O)[nH]c2=O)c1	15
118	C=CCn1c(CNC(=O)c2ccco2)nnc1SCC(=O)Nc1cccc(F)c1	1
119	CN1CCNC(=O)C1CC(=O)N1CC=C(c2ccc(F)cc2)CC1 (stereo not drawn)	19
120	O=C1c2ccccc2C(=O)c2c([N+](=O)[O-])ccc(O)c21	19
121	Cc1cc(C(F)(F)F)cc(NNC(=O)NC(=O)c2ccccc2Cl)n1	13
122	Cc1cc(C)cc(NC(=O)N2CCCN(c3ncccc3[N+](=O)[O-])CC2)c1	23
123	O=C(Nc1ccccc1)c1ccccc1Oc1ccc(C(F)(F)F)cc1[N+](=O)[O-]	5
124	CCOc1ccc(C(=O)c2ccccc2C(=O)O)cc1OCC	20
125	O=C(CCCC(=O)N/N=C\c1ccccn1)N/N=C\c1ccccn1	15
126	CN(C(=O)COC(=O)c1ccc(Cl)nc1)C1CCS(=O)(=O)C1 (stereo not drawn)	16
127	COc1nccnc1NS(=O)(=O)c1ccc(NC(=S)NC(=O)c2ccc(F)c(F)c2)cc1	12
128	COc1ccc(/C(C)=N\NS(=O)(=O)c2ccccc2)cc1OC	15
129	CN(C)CCNc1oc(/C=C/c2ccccc2)nc1C#N	20
130	O=C1N=C(N2CCOCC2)S/C1=C\c1ccncc1	24
131	Cc1cc(C(=O)COC(=O)c2cc(O)c3ccccc3c2O)c(C)n1CC1CCCO1 (stereo not drawn)	10
132	O=C(NC1CCCCCC1)c1cccnc1Sc1ccc(Cl)cc1	11
